fixLJ activator: activators of Burkholderia fixLJ two-component system, primary screen, B. multivorans, GFP reporter. B. multivorans fixK-promoter GFP reporter, 18 h; stronger effect = higher value. z-score (concentration not given with the values). hit rate 0.3% among 29,000;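 active means replicate mean overnight rise in green fluorescent reporter signal, 3 or more SD over negative controls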;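 further: score is relative to vehicle wells of the plate; 300 nL library stock went into each well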
The depositor's hits bear a star. Some of the compounds tested; count on the stated rates, not on these rows.

Preview (7 entries):
SMILES	fixLJ activator
Cc1ccc(NC(=O)Cn2c(=O)n(-c3ccccc3)c(=O)c3ccc(C(=O)NCc4ccc5c(c4)OCO5)cc32)cc1	1.2
CCOc1ccc(C(=O)CCC(=O)N2CCN(c3ncccc3Cl)CC2)cc1C	-1.8
Cc1coc2c(C)c3oc(=O)c(CC(=O)NCc4ccccc4)c(C)c3cc12	-1
Cc1ccc(C)c(NC(=O)CN2C(=O)CSc3nc(C)cc(C)c32)c1	-0.62
CN1CCCC(n2nc(Cc3ccc(Cl)cc3)c3ccccc3c2=O)CC1 (configuration not stated)	-3
CCC1C(=O)N(C)CCN1C(=O)c1[nH]c2c(C)cc(C)cc2c1C (configuration not stated)	-1.1
Nc1c(C(=O)NCc2ccccc2)nnn1Cc1cccc(Br)c1	-0.13

This part in full (from the top)
SMILES	fixLJ activator
Cc1ccc(NC(=O)Cn2c(=O)n(-c3ccccc3)c(=O)c3ccc(C(=O)NCc4ccc5c(c4)OCO5)cc32)cc1	1.2
CCOc1ccc(C(=O)CCC(=O)N2CCN(c3ncccc3Cl)CC2)cc1C	-1.8
Cc1coc2c(C)c3oc(=O)c(CC(=O)NCc4ccccc4)c(C)c3cc12	-1
Cc1ccc(C)c(NC(=O)CN2C(=O)CSc3nc(C)cc(C)c32)c1	-0.62
CN1CCCC(n2nc(Cc3ccc(Cl)cc3)c3ccccc3c2=O)CC1 (configuration not stated)	-3
CCC1C(=O)N(C)CCN1C(=O)c1[nH]c2c(C)cc(C)cc2c1C (configuration not stated)	-1.1
Nc1c(C(=O)NCc2ccccc2)nnn1Cc1cccc(Br)c1	-0.13
O=C(Cc1ccc(Cl)cc1)N1CC2COC[C@]2(C(=O)O)C1 (some centres not stated)	-1.5
Cn1nccc1CCNC(=O)CC(c1ccccc1)c1ccco1 (configuration not stated)	-0.19
CCOc1ccc(-n2c(=O)c3c(C)c(C)sc3n(CC(=O)Nc3ccc(CC)cc3)c2=O)cc1	-0.61
Cc1cccc(C(=O)Nc2cccc(OCc3cc(=O)n4c(C)csc4n3)c2)c1	-0.74
COC(=O)c1ccc(Oc2nc3c(c(=O)n(C)c(=O)n3C)n2C(C)C)cc1	-2.4
CC1CCC(NC(=O)c2ccc(CS(=O)(=O)c3cccc(C(F)(F)F)c3)o2)CC1 (configuration not stated)	0.06
COc1cc(C2Nc3ccccc3-c3cc(C)nn32)ccc1O (configuration not stated)	0.11
CCN1CCc2nc3sc(C(=O)c4ccccc4)c(N)c3cc2C1	26*
CCNC(=O)c1c(NC(=O)c2nc(S(=O)(=O)CC)ncc2Cl)sc2c1CCCC2	0.14
Clc1ccc(CSc2nc3ncccc3[nH]2)cc1	-2
CC(C)CCCC(C)[C@H]1CCC2C3CC=C4C[C@@H](O)CC[C@]4(C)C3CC[C@@]21C (some centres not stated)	-1.7
Cn1c(=O)nc2n(-c3ccc(Cl)c(Cl)c3)c3cc(Cl)ccc3cc-2c1=O	-1.7
Cc1ccc(-c2cc(-c3ccccc3)c(C#N)c(SCC(O)CS(=O)(=O)Cc3ccccc3)n2)cc1 (configuration not stated)	0.71
COc1ccc(N(C(=O)c2ccccc2C)S(=O)(=O)c2ccc3c(c2)n(C)c(=O)n3C)cc1	-1.4
CC1CCN(C(=O)CSc2nnc(-c3ccccc3)o2)CC1	-0.79
CCC1(C)CC(=O)c2c(ccc3oc(C(=O)Nc4ccc(C(C)=O)cc4)c(C)c23)O1 (configuration not stated)	-3.1
CN(Cc1ccccc1)C(=O)c1cc(-c2cccc(Cl)c2)on1	-0.71
COCCCNC(=O)c1ccc(Cn2c(=O)c3ccccc3n(Cc3ccccc3C)c2=O)cc1	-1.8
O=C(NCc1cc2n(n1)CCN(C(=O)CC1C=CCC1)C2)C1CCCC1 (configuration not stated)	-0.26
Cc1ccc2oc(-c3cc(NC(=O)c4ccco4)ccc3Cl)nc2c1	-2.6
Cc1ccc(-n2nc(CO)c(C(=O)NCc3ccccn3)n2)cc1C	0.66
CCC(=O)NCc1nc2ccccc2n1Cc1ccccc1	-1.7
CCN(C(=O)c1cc(COc2ccc(OC)cc2Cl)on1)C(C)C	-0.54
CCc1ccccc1NC(=O)c1nnn(Cc2ccc(Cl)cc2)c1N	-0.11
COc1ccccc1CNC(=O)c1ccc2c(c1)N(Cc1c(F)cccc1Cl)C(=O)CS2	-0.5
COc1ccc(S(=O)(=O)NCCc2cc3ccc(C)c(C)c3[nH]c2=O)cc1	-1.7
COc1cccc(N2CCN(S(=O)(=O)c3cc(Br)cc4c3N(C(=O)C3CC3)CC4)CC2)c1	-0.77
COC(=O)C1=C(c2ccccc2)c2ccccc2S(=O)(=O)N1CC(=O)Nc1cccc(C(C)=O)c1	-1
c1ccc(OCCn2c(COc3ccccc3)nc3ccccc32)cc1	-2.3
CCc1cc(C(=O)Nc2c(C)nn(Cc3ccc(C)cc3)c2C)no1	-1.6
CCc1nonc1NC(=O)c1oc2ccc(Cl)cc2c1C	-1.4
COc1cc2c(=O)n(CCC(=O)NCC3CCCO3)c(=O)n(CC(=O)Nc3ccc(C)cc3C)c2cc1OC (configuration not stated)	0.27
O=C(CSc1nnc(CNC(=O)c2cccc(F)c2)n1-c1ccccc1)Nc1ccccc1F	-0.17

Shown field by field: entries from further up.
O=C(NCc1cc2n(n1)CCN(C(=O)CC1C=CCC1)C2)C1CCCC1 (configuration not stated)
  fixLJ activator: -0.26

Cc1ccc2oc(-c3cc(NC(=O)c4ccco4)ccc3Cl)nc2c1
  fixLJ activator: -2.6

Cc1ccc(-n2nc(CO)c(C(=O)NCc3ccccn3)n2)cc1C
  fixLJ activator: 0.66

CCC(=O)NCc1nc2ccccc2n1Cc1ccccc1
  fixLJ activator: -1.7

Back to the main list, starting two compounds before the break.
SMILES	fixLJ activator
COc1cc2c(=O)n(CCC(=O)NCC3CCCO3)c(=O)n(CC(=O)Nc3ccc(C)cc3C)c2cc1OC (configuration not stated)	0.27
O=C(CSc1nnc(CNC(=O)c2cccc(F)c2)n1-c1ccccc1)Nc1ccccc1F	-0.17
CCOc1ccc(-n2c(=O)c3c(C)c(C)sc3n(CC(=O)NCCc3ccccc3)c2=O)cc1	-1.2
O=C(c1ccc[nH]c1=O)N1CCCC(c2nccn2Cc2ccccn2)C1 (configuration not stated)	-1
Cc1c(C(=O)NCc2ccccc2)oc2ccc(S(=O)(=O)N3CCC(C)CC3)cc12	-0.6
O=C1CC(c2nnc(Cc3ccc(F)cc3)o2)CN1c1ccccc1 (configuration not stated)	-1.2
NC(N)=NCCN1CCCCCCC1	0.69
O=C(O)c1cc(-c2ccc(CO)cc2)cc(S(=O)(=O)NCc2ccccn2)c1	-0.74
CC(C)(C)c1ccc(S(=O)(=O)N2CCC(Oc3ccc(-n4cnnn4)cc3)CC2)cc1	-0.82
CC(C)(C)c1ccc(Oc2ccc(NC(=O)CCC(=O)OCC(=O)c3ccccc3)cc2)cc1	2.9
CCn1c(CC2C(=O)Nc3ccccc32)nc2ccccc2c1=O (configuration not stated)	-2.1
CN1C(=O)C2(CCCN(C(=O)NCc3cccs3)C2)c2ccccc21 (configuration not stated)	-0.61
Cc1cc(C)n2nc(CNC(=O)c3c(F)cccc3F)nc2n1	-0.99
Cc1cc(CC2COCC2NC(=O)C(C)(C)N2CCOCC2)on1 (configuration not stated)	-0.41
Nc1c(-c2nc(-c3ccc(Cl)cc3)cs2)c2ccccn2c1C(=O)c1ccc2c(c1)OCO2	-1.8
CCCCc1ncc(/C=C(\Cc2cccs2)C(=O)O)n1Cc1ccc(C(=O)O)cc1	-1.1
COc1ccc(-n2nc3ccc(NC(=O)c4cccc(OCCC(C)C)c4)cc3n2)cc1	-1.3
CC(C)Oc1ccc(CNC(=O)Cn2c(=O)oc3ccccc32)cc1	-2
CCOc1ccc(NC(=O)c2cc3c(=O)n4cccc(C)c4nc3s2)cc1	-0.87
COc1ccc(Cl)cc1C(=O)N1CCOC2(CCN(c3cnccn3)C2)C1 (configuration not stated)	1.5
O=C(CCCN1CCCC1)N1CCC[C@]2(C1)CN(c1ncccn1)CCC2O (some centres not stated)	-0.88
COc1ccc2c(c1)c(=O)c(C(=O)c1ccc(F)cc1)cn2CC(=O)Nc1ccc2c(c1)OCCO2	-3.3
CCc1nn(C(C)C(=O)N2CCN(c3ccccc3)CC2)c(=O)c2cc3occc3n12 (configuration not stated)	-2.7
CCOc1ccc(N2CC(C)Cn3c2nc2c3c(=O)n(CC(=O)O)c(=O)n2C)cc1 (configuration not stated)	-0.81
CC(C)c1ccc(NC(=O)C(C)N(c2ccccc2)S(C)(=O)=O)cc1 (configuration not stated)	-2.1
Fc1ccc(N2CCN(c3nc4ccccc4c4nc(-c5cccnc5)nn34)CC2)cc1	-0.16
O=C(CCn1c(=O)c2sccc2n(Cc2ccc(F)cc2Cl)c1=O)NCc1ccc2c(c1)OCO2	-0.79
Cc1sc(-c2ccno2)cc1S(=O)(=O)N(C)Cc1ccon1	-1.6
COc1cccc(N(CC(=O)N2CCC(C)CC2)S(=O)(=O)c2ccc(C)cc2)c1	-1.1
O=C(CNS(=O)(=O)c1cccs1)N1CCN(c2ccccc2F)CC1	-1.6
Cc1ccc(C(=O)N(Cc2ccccn2)C2CCCCC2)cc1OCCN	-2.2
CN(C)c1nc(-c2ccncc2)nc2c1CCN(C(=O)C(N)C(C)(C)C)C2 (configuration not stated)	-1.6
N#Cc1cc2c(nc1SCC(=O)Nc1ccc(C(F)(F)F)cc1)C1CCN2CC1	-3.7
Cc1ccccc1OCC(=O)Nc1ccc(-c2nc3cc(Cl)cc(Cl)c3o2)cc1	1.2
CCOc1cc(C2c3c(oc4ccccc4c3=O)C(=O)N2c2ccccn2)ccc1O (configuration not stated)	1.6
Cc1ccc(-c2noc(CN(C(=O)COc3cc(C)cc(C)c3C)C(C)C)n2)cc1	0.45
CN(C)S(=O)(=O)N(CC(=O)Nc1ccc(Br)cc1F)c1ccccc1	-0.95
COc1cccc(CN2CCNC(=O)C2CC(=O)N(C)C(C)C)c1OC (configuration not stated)	-0.35
CCc1ccc(NC(=O)c2cc(C)nn2-c2ccccc2)cc1	-1.4
N#Cc1ccnc(N2CCCC(c3[nH]ncc3Cc3ccccc3)C2)c1 (configuration not stated)	-0.47
CC(CCc1ccc(O)cc1)NCCc1ccc(O)c(O)c1 (configuration not stated)	-1.1
COC(=O)c1ccc(NC(=O)CN(c2cccc(C(F)(F)F)c2)S(C)(=O)=O)cc1	-3.4
COc1cc(OC)c(NC(c2nnc(-c3ccccc3)o2)c2ccc(F)cc2Cl)cc1Cl (configuration not stated)	-1.7
Cc1ccccc1C(=O)N(Cc1ccc(N(C)C)cc1)CC1CCCO1 (configuration not stated)	-0.19
O=C(Nc1ccc2oc(-c3cccc(Cl)c3Cl)nc2c1)c1cccc(Br)c1	-1
O=S(=O)(c1ccc(Cl)cc1Cl)n1ccnc1	0.14
CCOc1ccc(/C=C(\C#N)C(=O)Nc2sc3c(c2C(=O)OC)CCC3)cc1OC	0.82
CC(C)SCCN1CCCC1c1nc(-c2ccccn2)no1 (configuration not stated)	-0.97
COc1nc2c(cc1CNC(=O)COc1cccnc1)C(=O)N(C1CCCC1)C2	-0.02
CCN(CCCNC(=O)c1cc2c(Cl)nc3ccccc3c2s1)Cc1ccccc1	-1.9
CCOc1ccccc1NC(=O)c1ccc2c(Cl)c3c(nc2c1)CCCC3	0.09
Cc1ccc(-n2nc(C)c3c(C(F)(F)F)cc(-c4cccnc4)nc32)cc1C	0.61
CCc1ccc(NC(=O)C2CCCN(S(=O)(=O)c3ccc(F)cc3)C2)cc1 (configuration not stated)	-0.87
COc1ccc(OC)c(NC(=O)Cn2c(=O)n(Cc3ccccc3)c(=O)c3ccccc32)c1	0.11
CCC(=O)N1CCc2[nH]cnc2C12CCN(C(=O)CN1CCCC1=O)CC2	0.82
Cc1cccc(-c2nc(CSCC(=O)NCCc3ccc(Cl)cc3)c(C)o2)c1	-0.89
CCCOc1ccccc1C(=O)Nc1c(C)c(CC)nn1C	-0.9
CCOc1ccc(C(=O)N(Cc2ccc(C(C)C)cc2)Cc2ccco2)cc1	0.59
O=C(CCN1Cc2cnn(Cc3ccc(F)cc3)c2C1)Nc1cccc(F)c1	1.3
CCc1cccc(NC(=O)Cn2c(=O)n(CCC(=O)NCc3ccccc3Cl)c(=O)c3sccc32)c1	-1.3
Cn1cnnc1SCCNC(=O)c1ccc2c(c1)NC(=O)CN2	0.24
Cc1noc(C2CCCN2C(=O)CSc2nnc(C)o2)n1 (configuration not stated)	-2.8

The closing two entries of the section before are carried over, then new ones follow:
SMILES	fixLJ activator
Cn1cnnc1SCCNC(=O)c1ccc2c(c1)NC(=O)CN2	0.24
Cc1noc(C2CCCN2C(=O)CSc2nnc(C)o2)n1 (configuration not stated)	-2.8
Cc1nc(C2(C)CCc3c(C)c(O)c(C)c(C)c3O2)n(CCO)n1 (configuration not stated)	0.51
COc1ccccc1NC(=O)Cn1c(=O)n(Cc2ccccc2)c(=O)c2ccccc21	-0.12
Cc1ccc(C(C)C)c(OC(C)(C)C(=O)N2CC(C(=O)O)C3(CCOCC3)C2)c1 (configuration not stated)	-0.01
COCC(=O)N1CCCN(Cc2cccc(-n3cccn3)c2)CC1	-0.29
CC(C)c1ccc(NC(=O)c2cc3c(=O)oc4ccccc4c3s2)cc1	-2.3
Cc1ccc(-n2nc3c(=O)n(C(C)C(=O)O)nc(C)c3c2C)cc1 (configuration not stated)	-1.8
CCn1c2ccccc2c2cc(CN3CCN(Cc4cc(OC)c(O)c(OC)c4)CC3)ccc21	-1.2
COc1nc(-c2ccc(C)cc2)ccc1-c1noc(-c2ccc(C(C)(C)C)cc2)n1	-2.4
CCOC(=O)c1sc(NC(=O)c2cc(CC)on2)c(C(=O)OCC)c1C	0.13
Cc1[nH]c2ccc(Br)cc2c1CCNC(=O)c1cc2ccccc2oc1=O	-1.1
COc1ccccc1CNC(=O)c1c(O)nc2c(C)cccn2c1=O	0.12
CCOc1ccc(/C=C/C(=O)Nc2sc3c(c2C(=O)OC)CCC3)cc1	0.38
CCC(C)C(=O)O[C@H]1C[C@H](O)C=C2C=C[C@H](C)[C@H](CC[C@@H](O)C[C@@H](O)CC(=O)O)C21 (some centres not stated)	0.64
CCOC(=O)c1cnc2c(ccc3ccccc32)c1Nc1ccc(N(C)C)cc1	0.99
CCOc1ccccc1NC(=O)C1CCCN(S(=O)(=O)c2cccs2)C1 (configuration not stated)	-1.3
